# Screening data (PubChem)
# VDR inh = blocks the human vitamin D receptor. P11473. VDR-SRC2-3 peptide fluorescence polarization, 2 h. Potency, µM, without a hit: max response, negative = inhibition, hits mostly inhibitors. 0.93% of 400,000 active; active means well fitted inhibition curve with a large enough effect; inconclusive means small, poorly fitted or top-dose-only effect, or another doubt; inactive means no such curve, though single readings can be large or run the other way; further: series mostly up to about 120 µM
# Target sequence (P11473 whole entry, looked up): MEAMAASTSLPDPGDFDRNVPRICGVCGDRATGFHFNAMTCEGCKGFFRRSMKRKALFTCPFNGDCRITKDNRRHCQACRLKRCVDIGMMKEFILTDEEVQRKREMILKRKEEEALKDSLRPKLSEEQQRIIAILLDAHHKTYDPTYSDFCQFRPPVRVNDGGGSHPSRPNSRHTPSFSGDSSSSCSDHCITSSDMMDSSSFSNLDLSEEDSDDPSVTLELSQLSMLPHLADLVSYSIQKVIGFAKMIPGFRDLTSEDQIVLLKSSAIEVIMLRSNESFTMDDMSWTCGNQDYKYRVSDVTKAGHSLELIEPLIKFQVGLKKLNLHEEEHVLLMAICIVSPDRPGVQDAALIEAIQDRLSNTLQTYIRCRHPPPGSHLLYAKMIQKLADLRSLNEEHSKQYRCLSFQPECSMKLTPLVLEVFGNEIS
#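 FP read-out; VDR + SRC2-3 coactivator peptide; 23 nl compound by pintool; 2 h RT incubation; reagents held at 4 deg C, protected from light.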
# * marks the source's active call; other numbers are inactive results; ? = inconclusive; & = joins results of further samples. On the % scale 0 is the no-effect control and ±100 the full control effect; potency means the concentration at half of the fitted maximal effect.
Compound	VDR inh
Cc1cccc(OCC(O)Cn2c(NCc3cccnc3)nc3c2c(=O)[nH]c(=O)n3C)c1 (configuration not stated)	5%
COc1ccc(S(=O)(=O)N(C)C2CCS(=O)(=O)C2)cc1OC (configuration not stated)	-7%
CC1(C)CC(=O)C(/C=N/n2cnc3ccccc3c2=O)=C(O)C1	13%
COC(=O)c1sc(=S)n(-c2ccccc2OC)c1N	0%
Cc1cc([N+](=O)[O-])c(=O)[nH]c1C	-9%
CCc1nnc(NC(=O)[C@@H](NC(=O)c2ccc(C(C)(C)C)cc2)C(C)C)s1	-16%
O=C(NCc1nc2ccccc2[nH]1)C1=C[C@H](c2coc3ccccc3c2=O)C[C@H](OCCCCO)O1	-24%
COc1ccc(-c2c(-c3cc(OC)cc(OC)c3)n(C)c3ccc(-c4ccc5c(c4)OCCO5)cc23)cc1	-9%
O=C(Nc1cc2c(cc1Br)OCCO2)c1ccc(=O)[nH]c1	-3%
O=C(c1cccs1)N1N=C(c2ccccc2)CC1c1ccccc1 (configuration not stated)	5%
COc1ccccc1CNc1cc(-c2cccc(NS(C)(=O)=O)c2)ncn1	-1%
Cc1ccc2c(c1)CCCN2C(=O)c1cc(C)c(C)s1	-1%
CCCN(CCC)C(=O)C1CCCN(c2ncnc3onc(-c4ccc(F)cc4)c23)C1 (configuration not stated)	7%
CC1CN(C(=O)Cn2cc(S(=O)(=O)CC(=O)N3CCOCC3)c3ccccc32)CC(C)O1 (configuration not stated)	2%
COc1cc2c(O)c3c(c(-c4ccc5c(c4)OCO5)c2cc1OC)C(=O)OC3	12%
CN(C)S(=O)(=O)Nc1ccc(Br)cc1F	-14%
Cc1ccccc1Nc1oc(-c2ccccc2)nc1-c1cccc2ccccc12	13%
Cc1ccc(CN2C(=O)C[C@@H](NS(=O)(=O)c3ccc4ccccc4c3)C/C=C\C2c2ccc(C)cc2)cc1 (some centres not stated)	?
Cn1c(=O)oc2cc(S(=O)(=O)NCCC(=O)Nc3ccc4c(c3)OCCO4)ccc21	-3%
COc1ccc(C2=NOC(C(=O)Nc3cc(C)on3)C2)cc1OC (configuration not stated)	-8%
CCN(Cc1ccccc1)C(c1ccccn1)c1nnnn1C1CCCCC1 (configuration not stated)	-7%
CCOC(=O)c1c(NC(=O)CSc2nnc(CNc3ccc(Cl)cc3)o2)sc(C)c1C	-8%
COc1ccccc1-c1coc2c(CN3CCC(C)CC3)c(O)ccc2c1=O	21%
CC1CC(C)(C)NC2(CCCC2)N1 (configuration not stated)	-8%
CCOC(=O)Cn1ccc(NC(=O)c2ccc(F)cc2)n1	9%
Cc1ccc2c(c1)C(=O)C(=O)N2CC(=O)OC(C)C	6%
O=C(CCCCCn1c(=S)[nH]c2cc3c(cc2c1=O)OCO3)N1CCN(c2ccc(F)cc2)CC1	-11%
O=C(c1ccc(S(=O)(=O)N2CCOCC2)cc1)N1CCN(c2ccccn2)CC1	-11%
CN(C(=O)c1ccc2c(c1)OCO2)C1CCS(=O)(=O)C1 (configuration not stated)	-5%
Cc1cnc(C(=O)Oc2ccc(-c3ccccc3)cc2)cn1	4%

# Rewritten with the structure last: part of the list above.
VDR inh	mol
-11%	O=C(CCCCCn1c(=S)[nH]c2cc3c(cc2c1=O)OCO3)N1CCN(c2ccc(F)cc2)CC1
-11%	O=C(c1ccc(S(=O)(=O)N2CCOCC2)cc1)N1CCN(c2ccccn2)CC1
-5%	CN(C(=O)c1ccc2c(c1)OCO2)C1CCS(=O)(=O)C1 (configuration not stated)

# Further structures
Compound	VDR inh
COc1ccc(S(=O)(=O)c2cn(CC(=O)Nc3ccccc3)c3ccc(Cl)cc3c2=O)cc1	-11%
O=C(C1CC(=O)N(c2ccc3c(c2)OCCO3)C1)N1CCN(c2ccccc2O)CC1 (configuration not stated)	-6%
CCCC(=O)Oc1ccc(N(C(=O)CCC)S(=O)(=O)c2cccc([N+](=O)[O-])c2)cc1	1%
COc1ccc(CNc2nc(-c3cccnc3)nn2C(=O)CC(C)C)cc1	-6%
COc1ccc(OCC(=O)NC(=S)Nc2ccc3c4c(cccc24)CC3)cc1	-2%
N=Nc1c(O)n(CC(=O)Nc2ccccc2)c2ccccc12	-23%
COc1ccc(Nc2c(C)cccc2C)cc1	3%
COc1ccc(C)cc1NC(=O)CSc1nnnn1Cc1ccccc1	10%
Cc1cc(C)c2c(=O)cc(C(=O)Nc3sc4c(c3C#N)CCCC4)oc2c1	12%
c1cnc(NC2CCCCCC2)nc1	-4%
CC1(c2ccccc2)CC(c2ccccc2)=C(C#N)C(=O)N1 (configuration not stated)	-1%
C/C(CC(=O)NC1CCCC1)=N\NC(=O)c1ccc([N+](=O)[O-])c(Cl)c1	-5%
O=C1Nc2ccccc2/C1=C\C(=O)c1ccccc1	?
Cc1ccc(NC(=O)CN2C(=O)NC(C)(c3ccc(Cl)cc3)C2=O)cc1 (configuration not stated)	6%
C=CCn1c(SCn2nnc3ccccc3c2=O)nnc1-c1ccc(Br)cc1	1%
COc1ccc(NC(=O)c2cc([N+](=O)[O-])ccc2N2CCCC2)cc1S(N)(=O)=O	12%
O=C(Nc1cccc(-c2nc3ccccc3[nH]2)c1)c1ccc(C(=O)Nc2cccc(-c3nc4ccccc4[nH]3)c2)cc1	25%
COc1ccc(/C=N/NC(=O)c2c(C)nc3ccccn23)cc1[N+](=O)[O-]	6%
O=C(CN1CCN(c2ccccc2)CC1)N1N=CCC1c1ccccc1 (configuration not stated)	-4%
COCC1CCCCN1Cc1cn[nH]c1-c1ccc(OC)cc1OC (configuration not stated)	7%
Cc1ccc(/C=N/N2CCN(Cc3ccccc3)CC2)s1	14%
COc1c(C)cccc1C(=O)Nc1ccc(CN2CCOCC2)cc1	8%
COc1cccc(/C=C/c2nc(C#N)c(NC3CCCCC3)o2)c1	18%
COC(=O)[C@]1(CC(C)C)N[C@H](c2ccc(-c3cccc(Cl)c3)cc2)[C@@H]2C(=O)N(C)C(=O)[C@@H]21	-4%
CCCCNC(=S)N(C)/N=C/c1ccc(F)cc1	-15%
Cn1c(=O)n(CC(=O)O)c(=O)c2c1nc1n2CCS1	2%&-15%
Cc1cc(C)c2c(=O)nc(SCc3ccccc3C)n(C3CC3)c2n1	19%
COc1cc2c(cc1OC)C(C)N(C(=O)Cn1ncc3c1-c1cc(C)ccc1OC3)CC2 (configuration not stated)	-13%
Cc1ccc2nc(SCCC#N)nc(C)c2c1	1%
COc1ccc(CCNC(=O)C2CC(O)CN2S(=O)(=O)c2ccc(Cl)cc2)cc1OC (configuration not stated)	-9%

Cc1ccc(C2c3[nH]c4ccccc4c3CCN2C(=O)CSCc2ccc(F)cc2)cc1 (configuration not stated)
  VDR inh = 10%

COc1cccc(C(=O)NCC(=O)N2CCC3(CC2)NCCc2[nH]cnc23)c1
  VDR inh = -10%

Cc1ccc(SCc2cc(=O)[nH]c(N3CCOCC3)n2)cc1
  VDR inh = 4%

COc1ccc(CCN(C)CCN2C(=O)c3ccccc3C2=O)cc1OC
  VDR inh = 1%

O=C(COC(=O)COc1ccccc1F)NC1CC1
  VDR inh = -11%

Cc1cc(NC(=O)CSCC(=O)NCc2cccc(C(F)(F)F)c2)no1
  VDR inh = 2%

COc1ccc(NC(=O)C(c2ccc(C)cc2)N(C)C(=O)CNC(C)=O)cc1 (configuration not stated)
  VDR inh = 9%

COc1ccc(-n2c(C)nn(CCOc3ccccc3)c2=O)cc1
  VDR inh = -10%

CC(C)COn1c(=S)[nH]c2ccccc2c1=O
  VDR inh = 5%

COC(=O)C(NS(=O)(=O)c1ccc(N2CCCC2=O)cc1)c1ccccc1 (configuration not stated)
  VDR inh = 1%

CN1C=CC(=C2C=CN(C)C=C2)C=C1
  VDR inh = -13%

CC(=O)Nc1cccc(Oc2nc(C(F)(F)F)nc3ccccc23)c1
  VDR inh = -4%

O=C1CC(c2ccc(S(=O)(=O)N3CCN(c4ccccc4)CC3)cc2)CN1 (configuration not stated)
  VDR inh = -2%

Cc1ccc(C(=O)NCCNC(=O)c2ccc(C)o2)o1
  VDR inh = -6%

COc1ccc(C(=O)c2oc3ccccc3c2NC(=O)COc2c(C)cc(C)cc2C)cc1
  VDR inh = -25%

Cc1ccc(NC(=O)Cn2nc(-c3ccco3)ccc2=O)cc1Cl
  VDR inh = -1%

CCCn1cnc2c(N)c(C)c(C)cc21
  VDR inh = -9%

Cc1nc(C(=O)NC(C)C)nn1-c1cc(Cl)cc(Cl)c1
  VDR inh = 10%

COc1cccc(NC(=O)CN(C)C(=O)CNC(=O)c2ccc(Oc3ccccc3)cc2)c1
  VDR inh = -2%

CCC(=O)N1CCc2cc(Br)cc(S(=O)(=O)NC3CCN(Cc4ccccc4)CC3)c21
  VDR inh = 11%

O=C(NNc1cc(Cl)ccc1Cl)C1CCC1
  VDR inh = ?

CNC[C@H]1Oc2c(NS(=O)(=O)c3cccs3)cccc2C(=O)N([C@H](C)CO)C[C@@H]1C
  VDR inh = 11%

Cc1ccc(C(=O)NCCc2csc(C)n2)cc1
  VDR inh = 4%

CCCCC(=O)Nc1ccc(C(=O)NNC(=S)NC(=O)c2ccccc2[N+](=O)[O-])cc1
  VDR inh = 3%

NC(=Nc1nc(-c2ccccn2)cc2ccccc12)c1ccccn1
  VDR inh = 2%

CC(=O)Nc1cccc(C(=O)OCC(=O)NC(=O)c2ccccc2)c1
  VDR inh = -2%

Cc1ccc(C(=O)NCC(=O)Nc2ccc3c(c2)CCC3)cc1C
  VDR inh = 7%

Cn1c(N)c(C(=O)COC(=O)CC(NC(N)=O)c2ccc(Cl)cc2)c(=O)n(C)c1=O (configuration not stated)
  VDR inh = -15%

COc1ccc(-c2csc(N(CCCN(C)C)C(=O)c3ccc(Br)cc3)n2)cc1
  VDR inh = -14%

O=C(CN1CCN(S(=O)(=O)c2cc(Cl)ccc2Cl)CC1)Nc1cccc(F)c1
  VDR inh = -9%

Nc1nc2n[nH]nc2c(=O)[nH]1
  VDR inh = 1%&0%

COCCNc1oc(-c2cccs2)nc1S(=O)(=O)c1ccc(C)cc1
  VDR inh = -18%

O=C(COC(=O)CSCC(=O)N1CCCCC1)Nc1ccc(Cl)cc1
  VDR inh = -4%

COc1cc(NC(=O)Cn2nc3c(cc2=O)CC(C)CC3)cc(OC)c1OC (configuration not stated)
  VDR inh = -4%

O=C(NNC1=NCCCCC1)Nc1ccc(Cl)cc1
  VDR inh = -1%

CC1CCc2sc3nc(N4CCN(CCO)CC4)n4ncnc4c3c2C1 (configuration not stated)
  VDR inh = -4%

CC(C)(C)c1ccc(/C=C/C(=O)Nc2ncccn2)cc1
  VDR inh = 3%

COc1cc(C)c(C)cc1S(=O)(=O)n1c(C)nc2ccccc21
  VDR inh = -22%

Cc1ccsc1C(=O)N/N=C/c1ccc2c(c1)OCO2
  VDR inh = -3%

O=C(NC1CCCCC1)C(c1ccc2ncccc2c1)N(Cc1ccccc1)C(=O)c1cccs1 (configuration not stated)
  VDR inh = -4%

Cc1ccc(SCC(=O)Nc2nncs2)cc1
  VDR inh = 4%

CCOc1ccc(-n2c(SC(C)C(=O)OC)nc3c(c2=O)SCC3)cc1 (configuration not stated)
  VDR inh = -4%

O=C(NCc1ccccn1)C(=O)NCC(c1ccco1)N1CCN(c2ccc(F)cc2)CC1 (configuration not stated)
  VDR inh = 4%

Cc1ccc(CNC(=O)c2ccc(CSCc3cccc(C)c3)o2)cc1
  VDR inh = 3%

C=CCn1c(SCc2csc(-c3ccc(Cl)cc3)n2)nnc1-c1ccccc1OC
  VDR inh = -18%

Cc1cc(C)c2nc(N3CCC(C(=O)NCCCN4CCCC4=O)CC3)sc2c1
  VDR inh = 10%

COc1cc(CNCc2ccc(C(=O)O)cc2)ccc1OCc1ccc(F)cc1
  VDR inh = -7%

CCc1nccn1S(=O)(=O)c1ccccc1[N+](=O)[O-]
  VDR inh = -6%

CCC(C)NC(=O)CSc1nnc(-c2cc(-c3cccs3)nc3ccccc23)o1 (configuration not stated)
  VDR inh = -4%

COC(=O)c1cc(C#N)c(NCc2ccccc2)nc1C
  VDR inh = ?

Cc1ccc(-c2cn3c(n2)sc2cc(C(=O)NCCC4=CCCCC4)ccc23)cc1
  VDR inh = -4%

COc1cccc2c1OCC/C2=N\NC(=O)COc1ccccc1C
  VDR inh = 18%

Cc1ccc(S(=O)(=O)n2nc(-c3ccc(Cl)cc3)nc2NCc2ccco2)cc1
  VDR inh = 4%

Cc1nn(CC(=O)NCc2cccc(F)c2)c(=O)c2c(C)n(-c3ccc(Cl)cc3)nc12
  VDR inh = -3%

Cc1cc(C(=O)Nc2nc3ccc(S(C)(=O)=O)cc3s2)c(C)o1
  VDR inh = 2%

CC/C=C/C(=O)N1CC2(CC(c3cccc(NC(=O)CCCCC)c3)=NO2)C[C@H]1C(N)=O (some centres not stated)
  VDR inh = -1%

COc1cccc(Nc2ncc3nc(C)c(=O)n(C[C@H]4CCCO4)c3n2)c1
  VDR inh = -6%

COc1ccc(N(C)S(=O)(=O)c2ccc3c(c2)n(C)c(=O)c(=O)n3C)cc1
  VDR inh = -11%

O=C(CN(C(=O)c1csnn1)c1ccccc1Cl)NC1CCCCC1
  VDR inh = -11%

COC(=O)[C@]1(C)N[C@H](CN(C)C(=O)c2ccccc2)[C@@H]2C(=O)N(C)C(=O)[C@@H]21
  VDR inh = -2%

CCNc1nc(NC(C)C)nc(NS(=O)(=O)c2ccc(C)cc2)n1
  VDR inh = 0%

# Reprinted at random: seven entries already listed
COc1ccc(NC(=O)c2cc([N+](=O)[O-])ccc2N2CCCC2)cc1S(N)(=O)=O
  VDR inh = 12%

COc1ccc(CNc2nc(-c3cccnc3)nn2C(=O)CC(C)C)cc1
  VDR inh = -6%

COC(=O)[C@]1(CC(C)C)N[C@H](c2ccc(-c3cccc(Cl)c3)cc2)[C@@H]2C(=O)N(C)C(=O)[C@@H]21
  VDR inh = -4%

COc1ccc(S(=O)(=O)N(C)C2CCS(=O)(=O)C2)cc1OC (configuration not stated)
  VDR inh = -7%

Cc1cc(C)c2nc(N3CCC(C(=O)NCCCN4CCCC4=O)CC3)sc2c1
  VDR inh = 10%

Cc1ccc(NC(=O)Cn2nc(-c3ccco3)ccc2=O)cc1Cl
  VDR inh = -1%

COc1ccc(OCC(=O)NC(=S)Nc2ccc3c4c(cccc24)CC3)cc1
  VDR inh = -2%

# An excerpt; the hit share may differ from the screen's.
